# Assay outcomes (PubChem BioAssay)
# FGF22 binding: FGF22 (human) thermal shift binding; 1.5% of 340,000 active; recombinant FGF22 thermal shift, SYPRO orange fluorescence; percent of sucrose octasulfate shift, DMSO zero; AID 651658; calls only at 9.99 µM;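 active = melting point raised past a set limit in the mean and every replicate; three in four hits are not shown here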
# Target sequence (Q9HCT0 whole entry, looked up): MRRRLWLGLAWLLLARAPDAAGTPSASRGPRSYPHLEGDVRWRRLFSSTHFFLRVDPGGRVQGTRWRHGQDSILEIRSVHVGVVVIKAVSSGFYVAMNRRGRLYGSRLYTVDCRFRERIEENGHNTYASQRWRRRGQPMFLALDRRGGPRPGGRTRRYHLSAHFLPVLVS
# ALR inh: inhibitors of human sulfhydryl oxidase ALR; 3.8% of 290,000 active; purified ALR, DTT oxidation, H2O2 HRP-luminol luminescence; inhibition, % (test concentration not listed);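 active = mean and each replicate at 75% or more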;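 also: stock transfer was 7.5 nL into about 7.5 µL; 0% = neutral wells and 100% = wells with inactivated enzyme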
# MLL AF4-AF9 inh: blocks AF4 peptide binding to human AF9 | AlphaScreen, biotin-AF4 peptide binding to FLAG-AF9 | 0.47% of 350,000 active | inhibition, % at 10 µM | AID 651704 | P42568;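 active = every replicate reaching a set inhibition limit, whatever the replicate mean, cut at about 25% in these data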;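 also: 0% = plate neutral control median and 100% = total signal loss; the record names both 10 and 1 µM as test concentration; the first replicate is given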
# Target sequence (P42568 whole entry, looked up): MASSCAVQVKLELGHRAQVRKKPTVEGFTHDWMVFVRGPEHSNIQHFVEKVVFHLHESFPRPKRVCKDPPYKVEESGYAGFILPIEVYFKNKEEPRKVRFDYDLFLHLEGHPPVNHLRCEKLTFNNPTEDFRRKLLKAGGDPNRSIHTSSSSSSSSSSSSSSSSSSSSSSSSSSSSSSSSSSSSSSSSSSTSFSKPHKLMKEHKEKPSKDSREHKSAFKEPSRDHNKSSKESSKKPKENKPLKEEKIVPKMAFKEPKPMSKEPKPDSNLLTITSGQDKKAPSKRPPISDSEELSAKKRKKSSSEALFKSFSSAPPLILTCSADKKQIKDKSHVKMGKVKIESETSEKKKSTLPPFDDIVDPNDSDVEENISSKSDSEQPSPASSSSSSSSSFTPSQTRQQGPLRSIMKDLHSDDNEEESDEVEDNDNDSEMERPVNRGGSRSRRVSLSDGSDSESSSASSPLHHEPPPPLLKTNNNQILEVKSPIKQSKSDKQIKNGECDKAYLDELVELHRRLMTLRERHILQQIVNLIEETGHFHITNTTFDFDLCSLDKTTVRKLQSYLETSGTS
# Vif A3G: inhibitors of Vif binding to APOBEC3G peptide, primary screen, biochemical, TR-FRET, GST-Vif 1-94, biotin-A3G peptide, dose response retest (AID 1117319). TR-FRET GST-Vif / biotin-A3G peptide binding; higher % means a stronger effect; test concentration not given here; strong numbers were not always called active. one-dose inhibition, %; IC50 in µM for titrated hits. 0.57% of 260,000 active;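 active = above the screen mean plus three standard deviations and confirmed in dose response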;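 also: Vif residues 1-94 fused to GST binding biotinylated APOBEC3G peptide 110-148; 0% = full assay without inhibitor and 100% = GST in place of GST-Vif; retest series ran down from 100 µM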
# E coli growth: inhibitors of Escherichia coli growth; 0.21% of 330,000 active; OD600, 23 h; active compounds read low; OD600 absorbance (no concentration beside the values); AID 1053175;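 active = OD600 absorbance below the run mean of sample wells minus 3.6 SD, in any replicate, cut at about 0.56 in these data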;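 also: stock transfer was 300 nL into about 60 µL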
# HNF4A DNA FP: change in binding of human HNF4 alpha to DNA | 0.3% of 360,000 active | activity change, % at 10 µM | HNF4a-FITC DNA binding, fluorescence polarization, 1 h | AID 1224865 | P41235; in the data active = activity change above about 30%, passing the limit was not always enough;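 also: controls were the assay level and a saturating level of protein; the project sought stronger binding though the title names inhibitors; some compounds called inactive have numbers as strong as hits; positive values seem to mean higher polarization but the record does not say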
# Ecoli rRNA inh: inhibits bacterial ribosomal RNA function over humanized ribosomes | E. coli WT GFP vs humanized-ribosome RFP mutants, fluorescence, 24 h; active compounds read low; DMSO median 0, no signal -100 | GFP signal change (wild-type ribosome), % (concentration not given with the values) | 1.6% of 350,000 active;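 active = significant combined selectivity score with lowered wild-type GFP, culture density cut under 30%, mutant RFP and density less affected; inactive = any of these conditions unmet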; also: one replicate is shown; some compounds called inactive have numbers as strong as hits
# Ecoli rRNA inh OD600: second read-out of Ecoli rRNA inh, no call of its own (marks repeat the call); OD600 change, %; measured here: OD600 growth;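 optical density of the mix in the first replicate; 0 = DMSO median and -100 = no signal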
# Ecoli rRNA inh RFP: further read-out of Ecoli rRNA inh, marked with its call; RFP signal change, %; measured here: RFP humanized mutant strains;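 first replicate; 0 = DMSO median and -100 = no signal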
# * marks the source's active call; other numbers are inactive results; i = inactive; / = no result given. Not all compounds are listed; rates above refer to the full screens.
# Under each structure – HNF4A DNA FP | Vif A3G | Ecoli rRNA inh RFP | E coli growth | Ecoli rRNA inh OD600 | Ecoli rRNA inh | FGF22 binding | MLL AF4-AF9 inh | ALR inh
O=S(=O)(c1ccccc1)N(Cc1ccc(Cl)cc1)c1ccncc1
 : 0.2 | / | -1.1 | 0.64 | 3 | 2 | i | 1.4 | -1
CN(C)C(=O)C[C@@H]1CC[C@H](NC(=O)Nc2cccc(F)c2)[C@H](CO)O1
 : / | / | 0.6 | / | 9 | -3 | i | -2.0 | /
CCOc1ccc2nc(NC(=O)c3ccc(OCC4CCCO4)cc3)sc2c1 (centres undefined)
 : -0.1 | -18% | 2.7 | 0.69 | -5 | -8 | i | -0.2 | -9
CCCNC(=O)Nc1ccc2c(c1)C(=O)N(C)C[C@H](OC)[C@H](C)CN(C(C)=O)[C@@H](C)CO2
 : / | / | -0.6 | / | -3 | 1 | i | 1.7 | /
CN(C)CCN(C(=O)CCS(=O)(=O)c1ccccc1)c1nc2cc3c(cc2s1)OCO3
 : 1.3 | 8% | -1.1 | 0.7 | 3 | 13 | i | -2.3 | 5
CCOC(=O)CNc1nc(Cl)nc(NC(C)(C)C)n1
 : -5.5 | -8% | -1.8 | 0.75 | 2 | 4 | i | -2.3 | 0
Cn1cccc1/C=N/NC(N)=S
 : 2.1 | -3% | 2.4 | / | 18 | 21 | i | 3.7 | 69
COc1ccc(C(=O)n2cnnc2N)cc1
 : -1.8 | -5% | 4.1 | 0.77 | 9 | 5 | / | / | 5
O=C(O)c1ccc(S(=O)(=O)N2CCC(n3nnc4cc(C(F)(F)F)ccc43)CC2)cc1
 : 1.7 | -2% | -1.9 | 0.67 | -8 | -3 | i | 0.1 | 1
CCN1CCN(CCCNC(=O)c2ccc(/C=C3/Oc4ccccc4N(Cc4cccc(C)c4)C3=O)cc2)CC1
 : 7.9 | / | / | 0.68 | / | / | / | / | -6
COc1ccc(/C=C/C(=O)Nc2ccc(NC(C)=O)cc2)cc1S(=O)(=O)N1CCOCC1
 : 4.5 | -2% | -0.3 | 0.7 | -12 | -5 | i | -53 | 1
Cc1ccc(NC(=O)CN2CCN(S(=O)(=O)c3cccs3)CC2)cc1S(=O)(=O)N(C)C
 : 5.1 | -9% | 5.8 | 0.65 | 3 | -3 | i | 0.4 | 47
CCc1nnc(NC(=O)CSc2nc(C)cc(C)c2C#N)s1
 : 0.9 | / | -4.3 | / | 0 | -6 | i | -14 | -9
CS(=O)(=O)c1ccc2nnn(OCC(=O)Nc3ccc(Br)cc3Br)c2c1
 : 0.5 | 9% | -4.1 | 0.68 | -3 | 1 | i | -1.0 | 7
CCOC(=O)c1c(NC(=O)CSc2nnc3c(n2)[nH]c2ccc(F)cc23)sc(C(C)=O)c1C
 : 2.2 | 4% | / | 0.72 | / | / | / | / | -5
CCOC(=O)C1CCCN(Cc2nc(Cc3ccccc3Cl)no2)C1 (centres undefined)
 : 4.5 | -7% | 2.7 | 0.71 | -6 | 4 | i | -4.1 | 0
O=C(O)C[C@@H]1C[C@H]2c3cc(NC(=O)Nc4ccccc4)ccc3O[C@H]2[C@@H](CO)O1
 : / | / | 2.9 | / | 6 | 3 | i | -9.3 | /
Cc1ccc(OCCn2c(C)nc3ccccc32)cc1
 : 0.5 | 1% | -0.7 | 0.64 | -18 | -21 | i | -0.3 | /
CC(C)C(NS(=O)(=O)c1ccccc1F)C(=O)OCC(=O)NCc1ccco1 (centres undefined)
 : 1.1 | -1% | -1.9 | 0.7 | 6 | 7 | i | 2.2 | /
CN(CCCNC(=O)c1ccccc1F)CCCNC(=O)c1ccccc1F
 : 1.7 | / | 10 | 0.69 | 20 | 27 | / | -4.3 | -10
CC(C)(C)OC(=O)N[C@@H](Cc1ccccc1)C(=O)NCC1CCC(C(=O)N[C@@H](CC(=O)O)C(=O)O)CC1 (some centres undefined)
 : -1.3 | 1% | 0.0 | 0.68 | 11 | 11 | i | -1.4 | 7
Cc1ccc2c(CC(=O)OCC(=O)N(CC(C)C)c3c(N)n(Cc4ccccc4)c(=O)[nH]c3=O)coc2c1
 : -1.4 | -1% | 3.6 | 0.71 | 18 | 10 | i | -38 | -6
O=C(C1CCCO1)N1CCN(S(=O)(=O)c2ccccc2)CC1 (centres undefined)
 : 3.5 | -2% | -9.7 | 0.72 | 4 | 14 | i | 13 | 1
O=C(CSc1nnnn1-c1ccc2c(c1)OCO2)NCc1ccccc1
 : 0.3 | 3% | / | 0.74 | / | / | / | / | -8
Cc1ccc(NC(=O)c2cc(Cl)ccc2[N+](=O)[O-])cc1C
 : -4.5 | 17% | / | 0.71 | / | / | / | / | -7
Cc1ccccc1-c1ccc([C@H]2[C@@H](CO)N3CCCCN(S(=O)(=O)c4ccc(F)cc4)C[C@H]23)cc1
 : / | / | -8.9 | / | -71 | -57 | i | 0.3 | /
CN(C)c1ncc(S(=O)(=O)c2ccccc2)c(-c2ccccc2Cl)n1
 : -0.4 | -2% | / | 0.68 | / | / | / | / | -4
Cc1cc(C)c(OCC(O)CNC(C)(C)C)c(C)c1 (centres undefined)
 : 0.0 | / | 0.6 | 0.72 | 13 | 25 | i | -0.2 | -19
CCCNC(=O)C[C@H]1C[C@@H]2c3cc(NS(=O)(=O)c4cccc(OC)c4)ccc3O[C@@H]2[C@@H](CO)O1
 : / | / | 1.8 | / | -8 | -1 | i | -1.1 | /
O=C(NCCc1c[nH]c2ccccc12)C1CCN(c2nnc(N3CCCC3=O)s2)CC1
 : 0.8 | 18% | / | 0.7 | / | / | / | / | -2

# (further entries)
# Under each structure – HNF4A DNA FP | Vif A3G | Ecoli rRNA inh RFP | E coli growth | Ecoli rRNA inh OD600 | Ecoli rRNA inh | FGF22 binding | MLL AF4-AF9 inh | ALR inh
Cc1nc2c3cnn(-c4ccc(C)c(C)c4)c3ncn2n1
 : 7.8 | 2% | / | 0.72 | / | / | / | / | 12
Nc1ccc(S(=O)(=O)c2ccc(N)nc2)cc1
 : 4.8 | / | 1.6 | 0.68 | 17 | 6 | i | -4.7 | /
COc1cccc(-c2ccc3c(c2)[C@@H]2[C@@H](CCN2C(=O)C2CCOCC2)[C@H](CO)N3)c1
 : / | / | -3.7 | / | 5 | -5 | i | 3.9 | /
C=CCN=c1scc(-c2ccco2)n1/N=C/c1ccc(O)c(O)c1O
 : -19 | 1.4µM* | 7.7 | / | 0 | 0 | i | -1.0 | 99*

# In another format: results already given.
COc1cccc(-c2ccc3c(c2)[C@@H]2[C@@H](CCN2C(=O)C2CCOCC2)[C@H](CO)N3)c1
  HNF4A DNA FP = /	Vif A3G = /	Ecoli rRNA inh RFP = -3.7	E coli growth = /	Ecoli rRNA inh OD600 = 5	Ecoli rRNA inh = -5	FGF22 binding = i	MLL AF4-AF9 inh = 3.9	ALR inh = /
Nc1ccc(S(=O)(=O)c2ccc(N)nc2)cc1
  HNF4A DNA FP = 4.8	Vif A3G = /	Ecoli rRNA inh RFP = 1.6	E coli growth = 0.68	Ecoli rRNA inh OD600 = 17	Ecoli rRNA inh = 6	FGF22 binding = i	MLL AF4-AF9 inh = -4.7	ALR inh = /
C=CCN=c1scc(-c2ccco2)n1/N=C/c1ccc(O)c(O)c1O
  HNF4A DNA FP = -19	Vif A3G = 1.4µM*	Ecoli rRNA inh RFP = 7.7	E coli growth = /	Ecoli rRNA inh OD600 = 0	Ecoli rRNA inh = 0	FGF22 binding = i	MLL AF4-AF9 inh = -1.0	ALR inh = 99*
Cc1nc2c3cnn(-c4ccc(C)c(C)c4)c3ncn2n1
  HNF4A DNA FP = 7.8	Vif A3G = 2%	Ecoli rRNA inh RFP = /	E coli growth = 0.72	Ecoli rRNA inh OD600 = /	Ecoli rRNA inh = /	FGF22 binding = /	MLL AF4-AF9 inh = /	ALR inh = 12

# Two entries picked at random from those above, as already listed:
# Under each structure – HNF4A DNA FP | Vif A3G | Ecoli rRNA inh RFP | E coli growth | Ecoli rRNA inh OD600 | Ecoli rRNA inh | FGF22 binding | MLL AF4-AF9 inh | ALR inh
C=CCN=c1scc(-c2ccco2)n1/N=C/c1ccc(O)c(O)c1O
 : -19 | 1.4µM* | 7.7 | / | 0 | 0 | i | -1.0 | 99*
COc1cccc(-c2ccc3c(c2)[C@@H]2[C@@H](CCN2C(=O)C2CCOCC2)[C@H](CO)N3)c1
 : / | / | -3.7 | / | 5 | -5 | i | 3.9 | /
